Source: PubChem BioAssay
Calb biofilm kill: clotrimazole potentiators killing C. albicans biofilm, primary screen, 4-compound mixtures. C. albicans biofilm persisters + clotrimazole, fluorescence viability; primary screen in compound mixtures of four per well. inhibition, % at 7.6 µM. AID 1242, 2008. actives 0.02% (n = 120,000);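 active means inhibition above 30.3% in the primary screen of four-compound pools, then above 30% when the compound was retested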;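 further: compounds exposed to preformed 24 h biofilms for 48 h; the number belongs to the whole pool; some results filed as inactive read as strong as hits; inactives centre near 12; 0% = biofilm with clotrimazole alone and 100% = kill control; retested singly at about 60 µM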
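Assay system: C. albicans biofilms / Medium: RPMI/MOPS medium, pH 7.0 / Schedule: biofilm formation 24 h, compound exposure 48 h, 37 °C / Measured by: Alamar Blue fluorescence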
An asterisk follows results filed as active. Only part of the results is shown, so the mix of outcomes need not match the whole.

SMILES	Calb biofilm kill
CC1CCC(=NNc2ccc(C(F)(F)F)cc2[N+](=O)[O-])CC1 (configuration not stated)	7.9
C=CCn1c(C)c(C(C)=O)cc(NC(=O)c2ccccc2)c1=O	8.9
COC(=O)N/N=C/c1ccc(-c2ccc(C)c(Cl)c2)o1	22.8
COc1ccc(O)c(C(=O)c2cnc3c(c2)c(-c2ccc(F)cc2)c(C#N)c(=O)n3C)c1	18.1
C=CCn1c(O)c(N=NC(=O)CNC(=O)/C=C/c2ccc(OC)cc2)c2ccccc21	13.2
CCOc1ccc(NC(=O)CCC(=O)N/N=C/c2ccc3c(c2)OCO3)cc1	11.4
CC(OC(=O)c1cccnc1Cl)C(=O)Nc1ccc(S(N)(=O)=O)cc1 (configuration not stated)	1.0
CCCCn1c(=O)[nH]c(=O)c2c(C(=O)OCC)cc(-c3cccs3)nc21	7.1
NS(=O)(=O)c1cccc(NC(=O)CSc2nc3ccccc3[nH]2)c1	19.1
On1nnc2cc(C(F)(F)F)ccc21	6.4
Cc1cc(N2CCN(C)CC2)ccc1NC(=O)c1c2c(nc3ccccc13)CCN(Cc1ccccc1)C2	6.8
CCOC(=O)C1=C(C)NC(=S)NC1c1cccs1 (configuration not stated)	8.3
NC(=O)CC(NC(=O)Cc1ccc(Cl)cc1)c1ccc(NCC2CC2)c([N+](=O)[O-])c1 (configuration not stated)	18.4
CCCN1CCN(C(=S)Nc2ccccc2C(F)(F)F)CC1	20.7
COc1cc2ccc(=O)oc2cc1OCC(O)C(C)(C)O (configuration not stated)	11.0

Among those listed so far, these contain four or more nitrogen atoms.
SMILES	Calb biofilm kill
C=CCn1c(O)c(N=NC(=O)CNC(=O)/C=C/c2ccc(OC)cc2)c2ccccc21	13.2
NS(=O)(=O)c1cccc(NC(=O)CSc2nc3ccccc3[nH]2)c1	19.1
Cc1cc(N2CCN(C)CC2)ccc1NC(=O)c1c2c(nc3ccccc13)CCN(Cc1ccccc1)C2	6.8
NC(=O)CC(NC(=O)Cc1ccc(Cl)cc1)c1ccc(NCC2CC2)c([N+](=O)[O-])c1 (configuration not stated)	18.4

Continuation.
SMILES	Calb biofilm kill
COc1ccc(-c2nc3c4ccccc4ccn3c2C=O)cc1	16.9
Cc1nn(-c2ccccc2)c(Cl)c1C(=O)NCc1cccs1	7.3
OC1CCCN(Cc2cn(Cc3ccccc3)nc2-c2cc3ccccc3o2)C1 (configuration not stated)	4.5
O=C(CSc1ccc(-c2ccccn2)nn1)NCc1ccccc1	9.6
CCC(C)NC(=O)Nc1ccc(F)c(Cl)c1 (configuration not stated)	10.5
CC(O)C(C(=O)OCc1ccc([N+](=O)[O-])cc1)N1C(=O)c2ccccc2C1=O (configuration not stated)	2.4
Cc1[nH]c2c(ccc3cccnc32)c1C	12.3
O=[N+]([O-])c1cccc(/C=N/N2CCN(Cc3ccccc3)CC2)c1	3.2
Cc1ccc(/C=N/n2c(-c3cccnc3)n[nH]c2=S)s1	17.2
Cn1c(=O)c([N+](=O)[O-])c(N2CCN(Cc3ccc4c(c3)OCO4)CC2)c2ccccc21	3.5
N#CC1=C(N)OC2=C(C(=O)CC(c3ccccc3)C2)C1c1cccnc1 (configuration not stated)	12.3
Cc1cccc(NC(=O)C2C3C=CC(C4CC34)C2C(=O)O)c1 (configuration not stated)	9.5
CCn1ccc(C(=O)NC2=NCCS2)n1	15.1
CCn1c(C)[n+](CC)c2ccc(S(=O)(=O)NC)cc21	0.6
O=C(NN=C(Cc1ccccc1)Cc1ccccc1)C1CC1	13.8
Cc1nnc(N/N=C/c2ccc(-c3ccccc3F)o2)n1N	-5.3
CC(C)C(=O)NN(C(=O)c1ccccc1)c1ccccc1	16.9
CCN(C(=O)COC(=O)/C=C/c1nc2ccccc2s1)C1CCS(=O)(=O)C1 (configuration not stated)	17.5
COc1ccc2c(c1)[nH]c1c(=O)n(Cc3ccncc3)cnc12	18.9
OCC1CCCN(Cc2cn(Cc3ccccc3)nc2-c2cc3ccccc3o2)C1 (configuration not stated)	-11.4
CCCCOc1ccc(C(O)(CCC)CCN2CCOCC2)cc1 (configuration not stated)	15.1
Fc1ccc(-n2nnc(-c3cnc4ccccc4c3)n2)cc1	19.0
Cc1ccc(C)c(SCC(=O)Nc2cc(C)nn2-c2ccc(F)cc2)c1	23.8
COc1cc(/C=C2/SC(=S)N(c3ccccc3)C2=O)ccc1Oc1nc(N2CCOCC2)nc(N2CCOCC2)n1	21.7
Cc1ccc(C(=O)NC(NCc2ccccc2)C(Cl)(Cl)Cl)cc1 (configuration not stated)	9.8
Cc1ccccc1C1N(c2nccs2)C(=O)C2CCCN21 (configuration not stated)	11.8
N#C/C(C(=S)Nc1ccccc1)=C1/NN=C(N2CCOCC2)N1c1ccccc1	8.3
CN1/C(=C\C(=O)COC(=O)c2ccc([N+](=O)[O-])o2)C(C)(C)c2ccccc21	-0.5
c1ccc(-c2nc3ccccn3c2NC2CCCC2)nc1	21.9
Cn1c(CCCOc2ccc(Cl)cc2Cl)nnc1SCC(=O)Nc1cccc(F)c1	13.9
O=C(CN1CCN(c2ccc(O)cc2)CC1)Nc1ccc2c(c1)OCCO2	4.3
CC1=NN(c2ccccc2)C(=O)C1c1ccccc1 (configuration not stated)	20.8
CCc1ccc(/C(C)=N/NC(=O)c2ccccn2)cc1	9.1
CC(C)Nc1nc(NC(C)C)nc(N(C#N)C(C)C(=O)N(C)C)n1 (configuration not stated)	14.5
O=C(N/N=C/c1cccnc1)c1ccccc1OCc1ccc(Cl)cc1	18.4
COc1ccccc1/C=C/C(=O)OCC(=O)Nc1cc(C(F)(F)F)ccc1N1CCOCC1	12.3
O/N=C/c1ccc(OCc2ccccc2)c(Br)c1	1.5
COc1ccccc1OCc1nc(-c2ccc([N+](=O)[O-])cc2)no1	3.2
CCc1cccc2c(C(=O)CN3C(=O)NC(C)(c4cccc5ccccc45)C3=O)c[nH]c12 (configuration not stated)	-1.0
Cn1c(CN2CCCC2)c(C#N)c2ccccc21	15.8
CCOC(=O)c1ccc(NC(=O)N2CCN(c3ccccc3OC)CC2)cc1	15.0
O=C(NC(Cc1ccccc1)C(=O)O)/C(=C\c1ccco1)NC(=O)c1ccccc1 (configuration not stated)	8.5
CC(C)(C)c1ccc(Oc2ccc(NC(=O)c3ccco3)cn2)cc1	8.4
O=C(NC(=S)Nc1ccccc1N1CCOCC1)c1ccc(-c2ccccc2F)o1	15.5
Cn1ccnc1SCC(=O)N1CCN(S(=O)(=O)c2ccccc2)CC1	10.9
Cc1cc(C)c(C(N)=O)c(Nc2cccc3ccccc23)n1	16.0
CCOC(=O)c1c(-c2ccc(OC)cc2)csc1NC(=O)CSc1ncnc2sccc12	23.7
Clc1ccc(-c2nnc(-c3cccc4ccccc34)o2)cc1Cl	18.8
C/C(=N\NC(=O)c1nn(C)c(C)c1Br)c1cccc(NC(=O)c2ccc(F)cc2)c1	8.8
CC/C(CC(=O)C(F)(F)F)=N\NC(=O)/C(C#N)=C/N(C)C	8.8
CC(C)Cn1c(N)c(C(=O)COC(=O)c2c(F)cccc2F)c(=O)n(C)c1=O	18.0
COc1ccccc1N1CCN(c2ccc([N+](=O)[O-])nc2)CC1	20.0
C=CCNC(=S)Nc1nc2c(cc1C(=O)OCC)COC(C)(C)C2	12.2
O=c1[nH]cnc2ccsc12	9.2
O=c1oc(/C=C/c2ccccc2)nc2ccccc12	13.0
COc1ccc(Cn2c(=O)sc3ccccc3c2=O)cc1	10.5
Cc1ccc(NC(=O)Nc2c(Cl)cccc2Cl)cn1	18.6
O=C(CSc1ccccc1)Nc1cccc(S(=O)(=O)N2CCCC2)c1	5.5
CC(=O)c1ccc(-c2nnc(CCC(=O)N(C)Cc3cccc4cnccc34)o2)s1	6.7
COc1cccc(/C=C/C(=O)c2ccc(C)c([N+](=O)[O-])c2)c1	10.1

The listing continues:
SMILES	Calb biofilm kill
CCOC(=O)c1ccc(N/C=C/C(=O)c2ccccc2)cc1	5.3
O=C(Nc1ccc(N2CCOCC2)c(Cl)c1)c1ccccc1Cl	21.4
O=C(CN1CCN(Cc2ccccc2Cl)CC1)N/N=C/C=C/c1ccco1	25.5
CC1CCN(S(=O)(=O)c2ccc(C(C)C)cc2)CC1	-1.2
CC1CCN(c2ccc([N+](=O)[O-])cc2C(=O)O)CC1	9.1
CCOC(=O)c1sc(NC(=O)Cc2ccc(C)cc2)nc1C	2.5
CCCSc1ccc2nc(-c3ccccc3)cn2c1	12.4
O=C(O)CSc1c(-c2ccccc2)[nH]c2ccccc12	10.0
O=C(COc1ccc(C(F)(F)F)cc1[N+](=O)[O-])Nc1cccc(C(F)(F)F)c1	14.2
O=C(CCCn1cnc([N+](=O)[O-])n1)Nc1cccc2ccccc12	12.8
Cn1nc2c(c1C(=O)O)CCCC2	13.7
O=C(Nc1nnc(-c2ccncc2)s1)Nc1ccccc1F	3.9
CCCCn1cc([N+](=O)[O-])nc1C	17.8
Nc1n[nH]c(=S)n1/N=C1/C(=O)Nc2ccccc21	1.4
Cn1c(=O)c(/C=C/c2ccccc2)nc2ccccc21	21.3
COC(c1ccccc1)c1nnc(CCC(=O)NCCC(C)C)o1 (configuration not stated)	0.2
COc1ccccc1N1CCN(CC(=O)NC(=O)NCc2ccco2)CC1	15.6
CC(NC(=O)Cc1cccc(C(F)(F)F)c1)c1ccc(F)cc1 (configuration not stated)	-11.5
CC1OC(Nc2ccc(N=Nc3ccccc3)cc2)C(O)C(O)C1O (configuration not stated)	2.4
CCCCC(=O)NCc1ccc(F)cc1	5.1
Cc1ccc(SCCN)cc1C	8.7
O=c1nc2n(c3ccc([N+](=O)[O-])cc13)CCCCC2	3.1
Fc1ccc(/C=N/NC(=S)Nc2ccc(Cl)cc2Cl)cc1	20.4
CC(C)(C)Nc1nc(SCC(=O)Nc2ccccc2)nc(N2CCOCC2)n1	2.1
Cc1ccc(S(=O)(=O)N(NC2=NS(=O)(=O)c3ccccc32)C(=O)c2ccccc2)cc1	17.2
Nc1c(C(=O)N/N=C/c2cccnc2)cnn1-c1ccccc1	4.5
COc1cc(C(=O)OCC(C)=O)c([N+](=O)[O-])cc1OC	10.7
Cc1ccc(C(=O)/C=C/c2ccc(F)cc2)o1	-15.2
COc1ccc(NC(=O)COC(C)=O)cc1Cl	10.0
COc1ccc(N(CC(=O)NCC(C)C)S(=O)(=O)c2ccccc2)cc1	16.5

Another view of part of the listing above:
molecule | Calb biofilm kill
COc1ccccc1N1CCN(c2ccc([N+](=O)[O-])nc2)CC1 | 20.0
C=CCNC(=S)Nc1nc2c(cc1C(=O)OCC)COC(C)(C)C2 | 12.2
O=c1[nH]cnc2ccsc12 | 9.2
O=c1oc(/C=C/c2ccccc2)nc2ccccc12 | 13.0

Later entries:
SMILES	Calb biofilm kill
COc1cc(C2NC(=S)NC(O)(C(F)(F)F)C2C(=O)c2cccs2)cc(OC)c1O (configuration not stated)	22.6
CCc1ccc(Nc2cc(C)nc3nc(C)nn23)cc1	8.9
O=C(CSc1ccc(F)cc1)Nc1ccccc1Br	-2.6
Cc1ccc(-n2cc(CNCCN3CCOC3=O)c(-c3cccc(C)c3)n2)cc1	15.2
NC(=O)COC(=O)CSc1ccc2ccccc2c1	10.2
CCCCCCCCC(=O)NCCOc1ccc(OC)cc1	8.9
Cc1ccccc1C1CCCN(Cc2nc(C3CC3)no2)C1 (configuration not stated)	5.9
O=C(CSc1cccc[n+]1[O-])NC1CCCCCCC1	12.7
CCN(CCO)Cc1cc(=O)oc2cc3c(cc12)CCC3	-0.7
CN(CCCNC(=O)CSc1cc(=O)n(C)c2cc(Cl)ccc12)Cc1ccccc1	-1.8
CS(=O)(=O)c1sc(C(=O)NC(=S)Nc2ccc(OC(F)(F)F)cc2)c2c1C=CCC2	24.7
O=C(NCC(O)CO)c1ccc2[nH]c3ccccc3c2c1 (configuration not stated)	11.5
CCOC(=O)N/N=C/c1ccc(OCCSc2ccc(Cl)cc2)c(OCC)c1	-2.5
O=C(CSc1ncn[nH]1)NCc1ccc2c(c1)OCO2	12.1
Cc1ccc2nc(-c3ccc(NC(=O)COC(=O)c4ccc(Br)o4)cc3)sc2c1	16.6
N#Cc1cnn2ccc(-c3cc(N4CCOCC4)ccc3[N+](=O)[O-])nc12	7.3
OCCCNc1nc(-c2ccc(Cl)cc2)nnc1-c1ccc(Br)cc1	10.6
Cc1cc2[nH]c(=S)[nH]c2cc1C	18.1
Cc1ccc2c(N)c(C(=O)c3ccccc3)sc2n1	8.0
CC(=O)c1ccc(NC(=O)C(C)OC(=O)c2ccc3c(c2)nc(C)n3-c2ccccc2)cc1 (configuration not stated)	9.4
CCOC(=O)/C(=C\C=C\N1CCOCC1)C(C)=O	17.4
Cc1nc2cc(-c3ccc(Cl)cc3)nn2c(C)c1CCC(=O)NC(C)c1ccc2c(c1)OCCO2 (configuration not stated)	14.8
COc1ccccc1NC(=O)c1cc(C)nc2ccccc12	15.5
CCn1c(CNS(=O)(=O)c2ccc(Cl)cc2)n[nH]c1=S	8.4
COc1ccccc1Nc1n[nH]c(=S)s1	11.3
COc1ccc(NS(=O)(=O)/C=C/c2ccccc2)cc1	10.9
Cn1c2ccccc2c(=O)c2c(=O)n(C3CCCCCC3)c(C3CCCCC3)nc21	14.5
CN(C)/C=N/c1nc2nccc(-c3cccs3)n2n1	16.9
CCN=C1SC(C(=O)Nc2ccc(OCC)cc2)CC(=O)N1CC (configuration not stated)	20.7
CC(C)c1cccc(C(C)C)c1NC(=O)CNCc1ccccc1F	6.0

Reprinted at random: 2 entries already listed.
SMILES	Calb biofilm kill
CC(=O)c1ccc(NC(=O)C(C)OC(=O)c2ccc3c(c2)nc(C)n3-c2ccccc2)cc1 (configuration not stated)	9.4
CCOC(=O)/C(=C\C=C\N1CCOCC1)C(C)=O	17.4

(continued)
SMILES	Calb biofilm kill
Cc1cc2nc(SCCOC(=O)Nc3ccccc3)nc(C)c2cc1C	-9.7
COc1ccc(C(C)(C)C)cc1NC(=O)COC(=O)c1ccc([N+](=O)[O-])o1	16.4
C=CCc1cc(C)ccc1OCCOCCn1ccnc1	11.8
O=C1CC(Sc2nnnn2C2CCCCC2)C(=O)N1c1ccccc1 (configuration not stated)	2.5
